Compound activity as filed in PubChem.
Tgondii IFNg – T. gondii growth inhibition under IFN-gamma | activity change, negative = inhibition, %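 (about 20 µM by stock and volumes)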 | AID 1259416 | 69,000 tested, 3.8% active | Toxoplasma gondii growth in IFN-gamma-treated host cells; stronger effect = lower value; reference of the scale not given here;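 active = below -70%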;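 note: host cells are HeLa cells infected with Toxoplasma gondii; parasite growth read as luciferase light; one replicate is shown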
Starred values were filed as active, the others as inactive. Some of the compounds tested; count on the stated rates, not on these rows.

SMILES | Tgondii IFNg
CCOC(=O)C(NC(=O)c1ccccc1)(OC)C(F)(F)F (stereo unspecified) | 20
O=C(CCN1CCCCC1)NCC[C@H]1CC[C@@H](NS(=O)(=O)c2cccc(Cl)c2)[C@H](CO)O1 | 62
CN(C)CC(=O)N1[C@@H](C#N)[C@@H](c2ccccc2-c2ccc(C(=O)N(C)C)cc2)[C@@H]1CO | 20
Cc1cc(C(=O)N2CCC3(CC2)NC(=O)CC3c2cccnc2)c(C)o1 (stereo unspecified) | 10
CS(=O)(=O)N1CCC2(CC1)CC(Nc1ncccn1)C2 | 301
O=S(=O)(NCc1ccccc1)N1CCN(C/C=C/c2ccccc2)CC1 | -5
CCOC(=O)CSC(=S)Nc1c(C)cc(C)cc1C | 30
Cc1noc(C)c1NC(=O)N1C[C@H](O)COC[C@@H]2O[C@@H](CC(=O)N[C@H]3CCN(Cc4ccccc4)C3)CC[C@H]21 | 6
Cc1cccc(-c2nc(C)c(CCNC(=O)C(=O)Nc3ccc(C)cc3C)s2)c1 | -7
COCCN(Cc1nccs1)C(=O)c1cn(-c2ccccc2)nn1 | 5
Cc1ccc(CN(C(=O)c2cnc(-c3cccnc3)nc2)C2CC2)s1 | 4
COc1cccc(-c2ccc(OC)c(OC)c2OC)n1 | 6
Cc1noc(C)c1NC(=O)N1C[C@@H](O)COC[C@H]2O[C@@H](CC(=O)NCC3CC3)CC[C@@H]21 | -12
COc1ccc2oc(=O)c(-c3cnc(Nc4ccccc4C)s3)cc2c1 | 21
O=c1[nH]c2ccccc2c(O)c1-c1nc(-c2ccc(Cl)c(F)c2)no1 | -23

Overlap with the part before: 2 compounds; new compounds follow.
SMILES | Tgondii IFNg
COc1ccc2oc(=O)c(-c3cnc(Nc4ccccc4C)s3)cc2c1 | 21
O=c1[nH]c2ccccc2c(O)c1-c1nc(-c2ccc(Cl)c(F)c2)no1 | -23
O=C(Nc1ccccc1F)N1CCCCN2[C@H](CO)[C@H](c3ccc(/C=C/c4ccccc4)cc3)[C@H]2C1 | -57
Cc1cc(N2CCC3(CC2)CNC(=O)C3)nc2cc(F)ccc12 | 3
Cc1oc(-c2ccc(NC(=O)c3cc(F)ccc3Cl)cc2)nc1Cn1cccn1 | -92*
COc1ccc(-c2nnc(-c3nc(NCCc4ccccc4)c4ccccc4n3)o2)cc1 | -34
Cc1oc(C2CCN(S(=O)(=O)c3cccc(F)c3)CC2)nc1C(=O)N1CCOCC1 | 29
CC(C)Cc1cc(CNC(=O)c2cn3c(n2)CNCC3)no1 | -3
COc1ccc(-c2cc3c(=O)n(Cc4nc(-c5ccccc5OC)oc4C)ccn3n2)cc1OC | 294
CSc1nccc(-c2ccsc2)n1 | 50
COCC(=O)Nc1ccc(-c2nc(-c3ccc(C)cc3C)co2)cc1 | 55
COC(=O)CCn1c(-c2cccnc2C)cc2cccnc21 | -16
CCC(=O)OCC(=O)[C@@]1(OC(=O)CC)[C@@H](C)C[C@H]2[C@@H]3CCC4=CC(=O)C=C[C@]4(C)[C@@]3(F)[C@@H](O)C[C@@]21C | -1
COc1cc2c(cc1OC)CN(C(=O)c1ccc(C)cc1)CC2 | -1
O=C(C[C@H]1CC[C@@H]2[C@H](COC[C@H](O)CN2C(=O)c2cnccn2)O1)NCc1ccc(Cl)cc1 | 10
COc1cc(C(=O)N2CCC(c3n[nH]c(=O)n3-c3ccccc3)CC2)ccn1 | -1
Cc1cccc(-n2c(Cc3ccccc3)n[nH]c2=S)c1 | 36
Cc1ccc(-c2nnc(-c3nc(N4CCCCCC4)c4ccccc4n3)o2)cc1 | -1
CCO[C@H]1CN(C(=O)Cc2ccsc2)[C@H]2COC[C@@H]12 | 76
O=C(NCCN1CCOCC1)c1cccc(CC2CCNCC2)c1 | 1
CCS(=O)(=O)N1CCC2(CC1)CC(N(C)Cc1ccco1)CO2 (stereo unspecified) | -7
Cc1ccc(-c2ccnc(-c3ccccc3CN3CCOCC3)n2)c(C)n1 | 3
OC(c1cccnc1)c1ccccc1N1CCN(Cc2ccco2)CC1 (stereo unspecified) | 37
CCn1c(=O)c2ccccc2n(CC(=O)c2ccc(Cl)cc2)c1=O | -49
NC(=S)c1ccc(-c2cccs2)s1 | 54
CCc1onc(C)c1C1CCCN1C(=O)Cn1nc(C(F)(F)F)cc1C (stereo unspecified) | 1
CC(C)n1nnnc1SCC(=O)NCCc1ccccc1 | 7
Cc1cccc(-c2nc(CSc3nc4c(c(=O)[nH]3)CN(C(C)C)CC4)c(C)o2)c1 | 1
CCc1ccc(S(=O)(=O)N2CCC3(CC2)NCCN=C3NCc2cc(F)cc(F)c2)cc1 | -30
COc1ccc(NC(=O)N2C[C@@H](O)COC[C@H]3O[C@H](CC(=O)NCc4ccncn4)CC[C@@H]32)cc1 | 5
CN1CCN(CC#N)C2(CCN(C(=O)c3ccc[nH]3)C2)C1=O (stereo unspecified) | 3
O=C(c1ccnnc1)N1CCc2ncnc(-c3ccccc3)c2CC1 | -5

Continued; the last 5 above are carried over.
SMILES | Tgondii IFNg
Cc1cccc(-c2nc(CSc3nc4c(c(=O)[nH]3)CN(C(C)C)CC4)c(C)o2)c1 | 1
CCc1ccc(S(=O)(=O)N2CCC3(CC2)NCCN=C3NCc2cc(F)cc(F)c2)cc1 | -30
COc1ccc(NC(=O)N2C[C@@H](O)COC[C@H]3O[C@H](CC(=O)NCc4ccncn4)CC[C@@H]32)cc1 | 5
CN1CCN(CC#N)C2(CCN(C(=O)c3ccc[nH]3)C2)C1=O (stereo unspecified) | 3
O=C(c1ccnnc1)N1CCc2ncnc(-c3ccccc3)c2CC1 | -5
O=C(NC1CCN(S(=O)(=O)Cc2ccccc2)CC1)c1ccc(F)cc1 | -3
CS(=O)(=O)N1C[C@H]2COC[C@@H](CC(=O)Nc3cccnc3)[C@H]2C1 | -1
O=C(CCC1Nc2c3ccccc3nc(=S)n2C1=O)NCCN1CCN(c2ccccc2)CC1 (stereo unspecified) | -6
CC(=O)Nc1cccc(-n2nnc(SCC(=O)c3ccccc3)n2)c1 | 139
COc1ccc(CC(=O)N2CCC[C@@H]2C(=O)NCCc2csc(-c3ccccc3)n2)cc1Cl | 12
CC(C)c1noc(CCNC(=O)C2(c3ccccc3F)CC2)n1 | 4
CO[C@@H]1CN(C)C(=O)c2cc(NC(=O)C3CC3)ccc2OC[C@@H](C)N(Cc2cc(F)ccc2F)C[C@@H]1C | -51
O=C(c1cccc(F)c1)N1CCc2c([nH]c3ccccc23)C1c1ccc(Cl)cc1 (stereo unspecified) | -53
Cc1cccn2cc(C(=O)NC[C@@H]3CCNC[C@H]3O)nc12 | -3
CCc1ccc(S(=O)(=O)N2CSC[C@@H]2C(=O)NCCc2csc(-c3ccccc3)n2)cc1 | -49
CC(=O)N1[C@H](CN(C)S(=O)(=O)c2ccccc2)[C@H](c2ccccc2)[C@@H]1CO | 2
CCC(=O)N1CC2(CN(Cc3ccc(F)cc3)C2)c2c(n(C)c3cc(OC)ccc23)[C@@H]1CO | -47
CN(C(=O)c1ccc2[nH]c(=O)c(=O)[nH]c2c1)C1CCCCCC1 | 147
O=C(O)CC(=O)C(=O)O | 25
Cc1cc(C)n(-c2ncnc3c2nnn3Cc2ccccc2Cl)n1 | -56
COC(=O)c1cccc(NC(=O)Nc2ccccc2)c1 | -44
O=C(C1CCOCC1)N1[C@@H](CO)[C@H](c2ccccc2)C12CN(CCC(F)(F)F)C2 | -53
O=C(C[C@@H]1CC[C@@H]2[C@H](COC[C@H](O)CN2Cc2nccs2)O1)NCc1ccccc1Cl | -13
Cc1cnc(N2CCC3(CC2)CC(N2CCOCC2)CO3)nc1 (stereo unspecified) | -5
COc1ccccc1-c1cc(NC(=O)c2nnn(-c3ccc(Cl)cc3)c2C)n(C)n1 | -78*
CC(C)CN1C(=O)N(C)C2(CCN(Cc3cc(CN4CCCC4)cs3)CC2)C1=O | -3
C=CCn1c(-c2sc3nnc(-c4ccccc4)c(-c4ccccc4)c3c2N)n[nH]c1=S | -31
O=C1NC2(CCN(C(=O)c3cc(-c4cccs4)[nH]n3)CC2)Nc2ccccc21 | 25
COc1cc2c(cc1CN1CCN(Cc3ncccc3C)CC1)OCO2 | 1
COc1ccc(CNCCC(c2ccc(F)cc2)c2ccc(OC(C)C)cc2)cc1OC (stereo unspecified) | -67
CCS(=O)(=O)Nc1ccc2c(c1)C(=O)N(C)C[C@@H](OC)[C@@H](C)CN(CC1CCCCC1)[C@@H](C)CO2 | -24
COc1cc(OC)c2c(=O)cc(-c3ccccc3)oc2c1 | 46
C[C@@H](Cn1c(C(F)(F)F)cc2cccnc21)NS(=O)(=O)c1ccc(F)cc1 | -9
O=C(C[C@@H]1C=C[C@H](NC(=O)Cc2ccccn2)[C@@H](CO)O1)NCCc1ccncc1 | -39
C[C@@H]1CN([C@@H](C)CO)C(=O)c2cccc(NC(=O)Nc3ccc(F)cc3)c2O[C@@H]1CN(C)S(=O)(=O)c1ccc(Cl)cc1 | -17

Random excerpt: 3 entries already listed, in no set order.
SMILES | Tgondii IFNg
CCC(=O)N1CC2(CN(Cc3ccc(F)cc3)C2)c2c(n(C)c3cc(OC)ccc23)[C@@H]1CO | -47
COc1ccc(NC(=O)N2C[C@@H](O)COC[C@H]3O[C@H](CC(=O)NCc4ccncn4)CC[C@@H]32)cc1 | 5
COc1ccc(-c2nnc(-c3nc(NCCc4ccccc4)c4ccccc4n3)o2)cc1 | -34

Further results.
SMILES | Tgondii IFNg
CCCN(CCC)S(=O)(=O)c1ccc(C(=O)ON=C2C3CC4CC(C3)CC2C4)cc1 | -79*
CCn1ncc(C(=O)NCCc2nccc(-c3ccccc3)n2)c1C | -5
Cc1sc2ncnc(NCC3CCN(c4cnn(C)c(=O)c4)C3)c2c1C (stereo unspecified) | -44
CCOC(=O)C12CC1/C(=N\O)c1ccccc1O2 (stereo unspecified) | 8
Cc1c(NCc2cccnc2)cccc1C(=O)NCc1cc(C(C)(C)C)n[nH]1 | -44
COc1cccc(C(=O)Nc2ccc3c(c2)OC[C@@H](C)N(CCc2ccccc2)C[C@H](C)[C@@H](OC)CN(C)C3=O)c1 | 190
Cc1[nH]cnc1-c1nccn1-c1ccc2c(c1)CCC2 | 3
CCC(=O)NCCc1csc(-c2ccc(Cl)cc2)n1 | 83
CCCC#Cc1ccc2c(c1)O[C@@H](CN(C)Cc1ccccn1)[C@@H](C)CN([C@@H](C)CO)S2(=O)=O | -67
Cc1nnc(CN2CCCCC2CCN2CCOCC2)s1 (stereo unspecified) | 8
Cn1c(=O)n(C)c2cc(NC(=O)C(c3ccc(F)cc3)N3CCOCC3)ccc21 (stereo unspecified) | 2
COc1cccc(CN2CC[C@@H]3OCCN(C(=O)c4ccco4)[C@@H]3C2)n1 | 2
Cc1ccc2c(c1)c(C(=O)N1CCC(O)(CN(C)C)C1)nn2C (stereo unspecified) | -2
N#CC1C(=O)Nc2sc(C(=O)c3ccc(Br)cc3)c(N)c2C12CCCCC2 (stereo unspecified) | -42
O=C(c1cccs1)N1CCC[C@@H]1Cn1c(=O)oc2ccccc21 | -7
CCc1ccc(S(=O)(=O)N2CCC3(CC2)NCCN=C3NCc2ccccc2OC)cc1 | 18
COc1ccc2c3c(n(C)c2c1)[C@H](CO)N(C(=O)C1CCOCC1)CC31CCN(C(=O)c2ccncc2)CC1 | 41
CO[C@H]1CCN(S(=O)(=O)c2cccs2)[C@H]1Cc1cnn(C)c1 | 42
CN1C(=O)c2cc(NC(=O)C3CCOCC3)ccc2OC[C@H]2O[C@@H](CC(=O)NCC3CCCCC3)CC[C@@H]21 | 9
Cc1cc(COc2ccccc2)oc1C(=O)N(C)Cc1snnc1C | 157
CC(CCc1ccccc1)NC(=O)c1cc2cc(S(=O)(=O)N(C)C)ccc2n1Cc1ccncc1 (stereo unspecified) | -44
CCN(C)C(=O)c1cc(-c2cn(C(C)C)cn2)n2ccccc12 | -17
O=C(CSc1n[nH]c(=O)n1C1Cc2ccccc2C1)N1CCOCC1 | -56
CSc1nccc(-c2ccc(S(C)(=O)=O)cc2)n1 | -4
O=C(Nc1ccnn1C1CCN(c2ncccn2)CC1)c1ccc2c(c1)OCO2 | -13
O=C1c2cccc3cccc(c23)C(=O)N1c1ccc2ncccc2c1 | -36
CC(C)N(C)Cc1nnc2n1CCN(CCO)C2 | 19
O=C(Nc1nccs1)[C@H]1[C@H](CO)[C@H]2Cn3c(ccc(-c4cncnc4)c3=O)[C@H]2N1CC1CCCC1 | -10
Cc1ccc(-c2cc(C3CCN(C(=O)c4ccn[nH]4)C3)ccn2)c2cccnc12 (stereo unspecified) | -6
Cc1oc(C2CCN(C(=O)c3cccnc3)CC2)nc1C(=O)N1CCSCC1 | 8
CCN(Cc1ccc(OC)cc1)C(=O)c1ccc(-n2cnnc2)cc1 | 2
CO[C@@H]1CN(C)C(=O)c2ccc(NC(=O)C3CC3)cc2OC[C@H](C)N(C(C)=O)C[C@@H]1C | -20
Cc1nc(Nc2nncs2)cc(C2CCCN2C(=O)c2cnccn2)n1 (stereo unspecified) | 2
COc1cccc(-c2cn(CC[C@@H]3CC[C@@H](NS(=O)(=O)c4ccccc4Cl)[C@H](CO)O3)nn2)c1 | -25
CC(=O)NCCc1csc(C2CCN(C(=O)c3cc(C)cc(C)c3)CC2)n1 | 5
CC(C)C(=O)N1CCN(S(=O)(=O)C2CC2)CC2(CC(=O)N(C)C2)C1 (stereo unspecified) | 1
COc1ccc(CNC(=O)CCC2N=C3c4ccccc4N=C(SCc4ccc(C)cc4)N3C2=O)cc1 (stereo unspecified) | -11
C=CCOCc1nnc2n1CCN(Cc1c(C)noc1C)CC2 | 4
Cn1c(SCC(=O)NCc2ccccc2)nnc1-c1ccco1 | 7
C[N+]12CCCCC1C(COC(=O)c1ccc3c(c1)OCO3)CCC2 (stereo unspecified) | 10
N#Cc1c(O)c2c(-c3ccc(-c4ccccc4O)cc3)csc2[nH]c1=O | 16
CN(C)c1ncc(CN2CCCC2c2nc(-c3ccccc3)no2)s1 (stereo unspecified) | 8
CC1CCN(Cc2c(O)ccc3c4c(c(=O)oc23)CCC4)CC1 | -24
C[C@H]1CN([C@@H](C)CO)C(=O)CCCn2nncc2CO[C@@H]1CN(C)C(=O)c1ccc2ccn(C)c2c1 | 0
CCCS(=O)(=O)N1CCC2(CC1)CN(Cc1ccccc1)C2=O | 4
